Bioassay records: PubChem, National Center for Advancing Translational Sciences (NCATS)
TRPML1 inh: blocks the human TRPML1 channel; 0.02% of 390,000 active; activity change, negative = inhibition, % (test concentration not listed); Q9GZU1; TRPML1-inducible cells, Ca2+ dye fluorescence, FDSS; active compounds read low; inhibition of EC80 agonist-evoked calcium signal; in the data active means activity change below about -50%; inconclusive means about -30% to -50%; inactive means above about -30%;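 further: stimulus is agonist 54-4 at its EC80 concentration; on the % scale 0 is the no-effect control and ±100 the full control effect; compound concentration not given in the record; the text of the record puts the active cut at -80%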
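Calcium fluorescence in TRPML1-DL cells induced overnight with Tet: a 110 s read after compound pin addition, then a 110 s antagonist read after challenge with 54-4 at 4 uM final (EC80).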
CtBP-E1A blk: blocks the CtBP interaction with E1A | AlphaScreen GST-E1A/His-CtBP binding, 1536-well; active compounds read low; control for the full effect not named in the record | activity change, % (concentration not given with the values) | 0.49% of 340,000 active; in the data active means activity change below about -65%; inconclusive means about -30% to -65%; inactive means above about -30%; further: on the % scale 0 is the no-effect control and ±100 the full control effect
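Steps: dispense buffer (Tris pH 8.0, NaCl 300 mM, TCEP 1 mM, BSA, Tween 20); add 5X protein mix (GST-E1A, His-CtBP, 125 nM each); pin 23 nL compound; 2 h at 37 °C, dark; add 5X beads (50 ug/mL); 1 h; read.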
TRPV1 potentiator: potentiators of human vanilloid receptor 1 (TRPV1); TRPV1-expressing cells, Fluo-8 calcium influx, capsaicin EC20 potentiation; host cell line not named in the record; control for the full effect not named in the record; potentiation, % at 8.33 µM; AID 540277; 0.02% of 320,000 active; active means potentiation above 80%; inconclusive means 30% to 80%; inactive means below 30%; further: 0% is about no effect
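Fluo-8 calcium influx in TRPV1-expressing cells, kinetic read (ex 480/em 520 nm). Compound added and read 3 min for agonist activity, followed by capsaicin at EC20 final and 2 min further read for enhancement.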
D2 potentiator: human D2 receptor positive allosteric modulation. P14416. DiscoveRx D2 beta-arrestin cells, luminescence, 90 min; 100% = 57 uM dopamine signal. potentiation, % (test concentration not listed). 0.23% of 360,000 active. AID 624464; active = potentiation of 50% or more; inconclusive = 30% to 50%; inactive = 30% or less;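 further: compound concentration not given in the record; tested on top of an EC20 dose of dopamine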
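D2 cells co-treated with compound plus 50 nM dopamine (EC20) for 90 min at 37 deg C to detect potentiation. Beta-arrestin recruitment was read as enzyme-fragment luminescence after 1 h at ambient temperature. Full response was set by 57 uM dopamine.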
Six1-Eya2 inh: blocks human Six1 binding to Eya2. 0.56% of 360,000 active. AID 651725. activity change, % (test concentration not listed). AlphaScreen GST-Six1/His-Eya2 binding, biochemical; active compounds read low; control for the full effect not named in the record. Q15475+O00167; in the data active = activity change below about -65%; inconclusive = about -30% to -65%; inactive = above about -30%; further: on the % scale 0 is the no-effect control and ±100 the full control effect
Target sequence (O00167 whole entry, looked up): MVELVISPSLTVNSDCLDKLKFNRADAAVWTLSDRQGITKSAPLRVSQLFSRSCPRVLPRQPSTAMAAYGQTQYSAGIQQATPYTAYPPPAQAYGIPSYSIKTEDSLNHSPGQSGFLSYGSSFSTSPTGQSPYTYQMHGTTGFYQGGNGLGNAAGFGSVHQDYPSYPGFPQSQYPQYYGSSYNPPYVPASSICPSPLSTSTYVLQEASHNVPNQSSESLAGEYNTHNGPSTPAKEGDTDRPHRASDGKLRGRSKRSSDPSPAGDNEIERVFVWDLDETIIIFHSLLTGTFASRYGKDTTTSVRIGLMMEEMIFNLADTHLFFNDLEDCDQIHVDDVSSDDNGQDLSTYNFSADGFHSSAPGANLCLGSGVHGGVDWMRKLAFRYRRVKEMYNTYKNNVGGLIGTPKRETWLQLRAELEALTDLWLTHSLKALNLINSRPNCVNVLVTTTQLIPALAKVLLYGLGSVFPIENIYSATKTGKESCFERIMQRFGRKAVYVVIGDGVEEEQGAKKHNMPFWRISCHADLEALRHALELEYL
Target sequence (Q15475 whole entry, looked up): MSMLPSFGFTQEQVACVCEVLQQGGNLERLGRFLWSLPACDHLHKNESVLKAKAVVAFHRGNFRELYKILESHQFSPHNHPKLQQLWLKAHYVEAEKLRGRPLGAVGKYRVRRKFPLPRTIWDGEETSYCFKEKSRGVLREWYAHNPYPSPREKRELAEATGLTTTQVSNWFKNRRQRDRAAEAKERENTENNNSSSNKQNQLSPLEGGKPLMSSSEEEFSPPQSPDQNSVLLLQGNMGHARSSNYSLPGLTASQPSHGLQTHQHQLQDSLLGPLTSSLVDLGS
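GST-Six1 + His-Eya2 (5X stock: 250/500 nM); Tris pH 8.0, 300 mM NaCl, 0.05% BSA, 0.02% Tween 20; GSH donor/Ni acceptor beads; 1 h 37 °C dark; AlphaScreen readout.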
TRPML1 ag: activates the human TRPML1 channel; Q9GZU1; TRPML1-expressing cells, Ca2+ dye fluorescence, FDSS; host cell line not named in the record; reference of the full effect not given here; activation, % (concentration not given with the values); 0.12% of 410,000 active; AID 624414; in the data active = activation above about 50%; inconclusive = about 30% to 50%; inactive = below about 30%; further: 0% is about no effect; the text of the record puts the active cut at 80%
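Tetracycline-induced TRPML1-DL cells are seeded and incubated overnight before loading with a no-wash Ca2+ dye and quencher. Agonist activity is taken from the 110 s fluorescence read following compound pin-transfer on an FDSS, before EC80 54-4 challenge.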
An asterisk follows results filed as active; ? = inconclusive; . = not tested or not shown; & = joins results of further samples.

SMILES	TRPML1 inh	CtBP-E1A blk	TRPV1 potentiator	D2 potentiator	Six1-Eya2 inh	TRPML1 ag
N#CC1(c2ccccc2)CCN(S(=O)(=O)c2ccc(OC(F)(F)F)cc2)CC1	25.3	-1.1	3.6	-8.5	17.2	1.1
COc1ccccc1NC(=O)C(C)Sc1nccn1C (stereo unspecified)	-8.9	.	0.8	0.6	6.4	0.2
CC(C)CC(NC(=O)C1CCCCC1)C(=O)NCc1ccccn1 (stereo unspecified)	-4.7	2.2	1.0	-4.1	-0.9	-1.0
COc1ccccc1Oc1ccccc1C(=O)O	15.1	-10.5	1.3	-5.2	1.5	0.6
O=C(O)CSCC(=O)NCc1ccc(Cl)cc1	-6.2	0.0	2.6	-0.6	4.2	0.3
CC1Cc2ccccc2N1S(=O)(=O)c1cccc(C(=O)NC2CC2)c1 (stereo unspecified)	13.3	17.6	4.7	-7.3	12.8	-1.8
COc1ccc(Cn2c(CO)cnc2SCC(=O)Nc2cccc(NC(C)=O)c2)cc1	-13.7	-9.9	4.4	-9.4	-4.4	0.5
COc1ccc(Oc2nccc(-c3ccc(Cl)cc3)n2)cc1	50.6	9.0	?	23.6	14.1	1.8
N#CCCN(C(=O)COC(=O)Cc1c[nH]c2ccccc12)c1ccccc1	1.1	4.6	5.7	-26.0	-6.1	0.3
C/C(=N\N=C(/N)SC1CC(=O)N(c2ccc(Cl)cc2)C1=O)c1cccs1 (stereo unspecified)	4.5	-16.7	-3.5	-2.9	0.0	2.3
CCC(C(=O)NC1CCCC1)N(C(=O)c1snc(C(N)=O)c1N)c1ccc(OC)c(OC)c1 (stereo unspecified)	-9.8	0.0	22.4	-0.8	3.2	0.3
O=C(CSc1c[nH]c2ccccc12)NCc1ccc2c(c1)OCO2	13.2	9.4	-13.9	-6.9	-3.4	0.9
CCOc1cc(NC(=O)c2cccs2)c(OCC)cc1NC(=O)CCC(=O)NCC1CCCO1 (stereo unspecified)	14.7	-0.5	-4.1	-1.4	-16.2	0.1
CC12CCC(C(=O)N(CC(O)CN3CCCCCC3)C1=O)C2(C)C (stereo unspecified)	7.0	6.4	-0.5	-1.0	3.5	2.8
COC(=O)c1ccc(NC(=O)CCS(=O)(=O)c2ccc(Br)s2)cc1	5.6&20.8	0.0	-4.4	-14.1	1.3	-0.5&-0.5
CN/N=C(\Cc1nc2ccccc2[nH]1)c1ccc([N+](=O)[O-])cc1	3.4	-0.7	-3.4	-11.6	-18.3	0.0
c1ccc(OCc2nn3c(-c4cccnc4)nnc3s2)cc1	4.6	-2.5	0.9	-1.5	-2.1	0.1
O=C(Nc1cccc(C(F)(F)F)c1)Oc1ccc(Cl)c2cccnc12	14.7	-96.4*	-5.0	-0.8	-70.1*	0.4
CC(C)[C@H](NC(=O)c1ccccc1Cl)C(=O)OCC(=O)NC(=O)NC1CCCC1	3.6	0.9	?	-18.3	0.0	1.5
COc1ccc2oc(C(=O)Nc3nc(-c4ccccn4)cs3)c(C)c2c1	-1.8	-1.3	7.9	-2.4	?	-0.3

Next section; it opens with the 2 that closed the last part.
SMILES	TRPML1 inh	CtBP-E1A blk	TRPV1 potentiator	D2 potentiator	Six1-Eya2 inh	TRPML1 ag
CC(C)[C@H](NC(=O)c1ccccc1Cl)C(=O)OCC(=O)NC(=O)NC1CCCC1	3.6	0.9	?	-18.3	0.0	1.5
COc1ccc2oc(C(=O)Nc3nc(-c4ccccn4)cs3)c(C)c2c1	-1.8	-1.3	7.9	-2.4	?	-0.3
O=C(/C=C/c1ccccc1)OCc1cnc(Cl)s1	10.5	-4.6	-17.5	-8.1	-0.9	1.4
O=C(NC(=S)Nc1ccccc1N1CCCC1)c1ccc(F)cc1	5.4	?	-12.9	-22.1	?	0.7
O=C1CCCN1c1ccc(S(=O)(=O)NCCc2ccc(Cl)cc2)cc1	-5.6	9.1	4.3	-7.6	6.1	-0.7
O=C(NC1CCCCC1)c1ccc(COc2ccccc2)o1	-16.8	5.9	-18.6	-2.9	1.4	-0.8
COC(=O)C(Cc1c[nH]c2ccccc12)NC(=O)C(C)C (stereo unspecified)	4.3	4.4	5.3	8.2	-5.8	0.1
CCCCCCSc1cc(-c2nc3ccc(C)cn3c2NCCCC)ccc1OC	16.8	0.7	.	-10.1	-10.0	-0.6
O=C(CSc1nnnn1-c1ccc(O)cc1)Nc1ccc(N2CCOCC2)c(Cl)c1	-8.8	-10.6	-1.5	6.7	-12.7	-0.3
Cc1cc(C)c(NS(=O)(=O)c2ccc3c(c2)n(C)c(=O)n3C)c(C)c1	-27.6	.	9.0	-2.1	10.1	-0.7
COC(=O)c1c(C)[nH]c(C(=O)/C=C/c2ccccc2F)c1C	60.6	-6.1	-0.6	-5.9	1.9	0.1
COC(=O)[C@@H](NC(=O)Nc1ccc(OC)cc1)C(C)C	10.9	9.9	29.6	-9.0	1.7	0.3
COC(=O)[C@@]12CCCCN1[C@H](c1ccc(-c3cccc(Cl)c3)cc1)[C@@H]1C(=O)N(C)C(=O)[C@@H]12	-22.4	1.9	.	-4.9	-2.9	-0.8
CCOC(=O)C1C(c2ccc([N+](=O)[O-])cc2)C2C(=O)NN=C2CC1(C)O (stereo unspecified)	-8.8	4.2	-1.2	-13.7	7.4	-0.5
Cc1ccc(C)c(OCCC(=O)NNC(=O)c2ccncc2)c1	-1.0	0.7	3.0	-15.1	4.8	-0.3
N#Cc1ccccc1OCC(=O)OCCCOC(=O)COc1ccccc1C#N	-16.1	-2.3	6.7	-3.6	-0.1	1.2
Cc1cc(C(=O)N/N=C/C(Cl)=C/c2ccccc2)c(C)o1	5.3	-19.4	7.0	-15.0	-8.1	-0.4
COc1ccc(NC(=O)CN2CCN(c3ccccc3F)CC2)cc1	-2.1	0.0	-1.7	-41.5	24.6	1.4
O=C(NCCCN1CCN(c2ccccc2F)CC1)C1CCCN(S(=O)(=O)c2cnc[nH]2)C1 (stereo unspecified)	-13.4	3.2	.	12.4	0.5	0.2
Cc1ccc(NC(=O)CCNC(=O)c2ccc([N+](=O)[O-])cc2)cc1C	-2.9	0.2	-12.2	2.3	4.2	0.0
CCOC(=O)CC(=O)CSc1nnc2sc3ccccc3n12	-4.0	-11.1	7.0	-12.5	-12.5	0.1
NC(=O)[C@H]1CC2(CC(c3cccc(NC(=O)[C@H]4CCC(=O)N4)c3)=NO2)CN1C(=O)c1cc([N+](=O)[O-])cc([N+](=O)[O-])c1 (stereo partly specified)	-13.0	6.5	22.9	28.3	2.1	0.5

Individual results from the list:
In CtBP-E1A blk, CCOC(=O)CC(=O)CSc1nnc2sc3ccccc3n12 is entered as -11.1
In TRPV1 potentiator, O=C(NC(=S)Nc1ccccc1N1CCCC1)c1ccc(F)cc1 is entered as -12.9

New compounds follow.
SMILES	TRPML1 inh	CtBP-E1A blk	TRPV1 potentiator	D2 potentiator	Six1-Eya2 inh	TRPML1 ag
CC(=O)Nc1ccc(-c2ccnc3c2CC(C)(C(=O)Nc2cccc(OC(F)(F)F)c2)O3)cc1 (stereo unspecified)	.	3.0	.	2.2	-2.6	-0.4
COc1cc(/C=C/C(=O)c2ccc(NS(=O)(=O)c3ccc(C)cc3)cc2)cc(OC)c1O	2.6	15.1	-3.0	2.4	9.7	5.2
N=C1/C(=C/c2ccc(OCc3ccccc3F)cc2)C(=O)N=C2SC(CC(=O)N3CCOCC3)=NN12	5.4	0.0	10.5	-28.6	-18.8	0.1
CC(/C=C/c1ccccc1)=N\Nc1ccccc1[N+](=O)[O-]	-1.1	?	-1.4	3.0	?	0.2
O=C(NCc1nc2ccccc2[nH]1)C1=C[C@H](c2csc3ccccc23)C[C@H](OCc2ccc(CO)cc2)O1	-2.9	.	?	-11.6	-3.3	1.9
CCOc1ccc(NC(=O)COC(=O)Cc2ccsc2)cc1	-10.5	3.5	.	-8.3	4.6	1.8
C=CCOc1cccc(/C=N/NC(=O)C(OC)c2ccccc2)c1 (stereo unspecified)	-0.8	-1.7	-8.4	-5.4	2.8	0.4
COC(=O)c1ccc(SCC(=O)NC2CCCCC2)c([N+](=O)[O-])c1	12.0	-0.2	4.7	1.1	-16.4	-0.6
O=C(Nc1ccc(C(=O)N2CCOCC2)cc1)c1ccccc1[N+](=O)[O-]	42.0	-0.5	13.2	2.0	8.3	0.3
CN(C(=O)CSc1nnc(C2CC2)n1-c1ccccc1)C1CCS(=O)(=O)C1 (stereo unspecified)	10.4	10.2	3.4	1.6	-0.2	-0.7
O=C1NC(=O)/C(=C/c2ccccc2Oc2ccc(Cl)cc2)S1	-2.1	-4.5	-15.4	8.0	8.5	-1.0
CC(=O)Oc1ccc2nc(/C=C/c3ccc(C=O)cc3)oc(=O)c2c1	-14.9	4.0	-5.2	3.9	-1.5	-0.2
O=[N+]([O-])c1c(Nc2ccccc2O)cc(Cl)c2nonc12	2.5	-5.6	-9.9	-25.0	-27.0	1.1
O=C(NNC(=O)c1ccccc1Cl)c1ccc2c(=O)n3c(nc2c1)CCC3	0.5	-9.6	-0.3	4.7	-9.3	-0.4

Printed as active in Six1-Eya2 inh, of those listed so far:
Structure	TRPML1 inh	CtBP-E1A blk	D2 potentiator	Six1-Eya2 inh
O=C(Nc1cccc(C(F)(F)F)c1)Oc1ccc(Cl)c2cccnc12	14.7	-96.4*	-0.8	-70.1*

Part of the list above, bar-delimited.
mol | TRPML1 inh | CtBP-E1A blk | TRPV1 potentiator | D2 potentiator | Six1-Eya2 inh | TRPML1 ag
C=CCOc1cccc(/C=N/NC(=O)C(OC)c2ccccc2)c1 (stereo unspecified) | -0.8 | -1.7 | -8.4 | -5.4 | 2.8 | 0.4
COC(=O)c1ccc(SCC(=O)NC2CCCCC2)c([N+](=O)[O-])c1 | 12.0 | -0.2 | 4.7 | 1.1 | -16.4 | -0.6
O=C(Nc1ccc(C(=O)N2CCOCC2)cc1)c1ccccc1[N+](=O)[O-] | 42.0 | -0.5 | 13.2 | 2.0 | 8.3 | 0.3

An unsorted share of the library; 0.95% or so of the library scored in one or more.
